Vaccinia stage – Vaccinia orthopox stage-specific inhibition. Vaccinia-infected cells, mCherry/Venus stage reporter fluorescence; active compounds read low; some inactives read as strong as hits. activity change (mCherry), % (no concentration beside the values). 89,000 compounds, 0.01% hits. AID 1053133;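 active = mCherry past -33% and 40 or more points under the early reporter, replicates agreeing; inconclusive = past -33% without that gap or agreement; tested in A549 cells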;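 note: scaled between vehicle wells and reference inhibitor wells; 23 nL library stock went into each well; one replicate is shown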
Vaccinia stage Venus – further read-out of Vaccinia stage, marked with its call; activity change (Venus), %; measured here: Venus reporter, other viral stage;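 negative = less Venus signal; first of two replicates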
Active calls of the source: *; ? = inconclusive; / = no result given; & = joins results of further samples. This is a subset; rates above refer to the full screens.

# | Molecule | Vaccinia stage | Vaccinia stage Venus
1 | O=C(C1CCC1)N1CC(=O)N2[C@@H](CO)[C@H](c3ccc(Br)cc3)[C@@H]2C1 | 3.6 | 3.5
2 | C[C@@H]1CN([C@H](C)CO)C(=O)c2cc(NC(=O)c3ccncc3)ccc2O[C@@H]1CN(C)Cc1ccc(C(=O)O)cc1 | 7.8 | 2.5
3 | C/C=C/c1ccc([C@@H]2[C@@H](CO)N(C(=O)C3CC3)C23CN(S(=O)(=O)CC)C3)cc1 | -4.2 | -0.4
4 | CC(C)NC(=O)N[C@@H]1CC[C@H](CC(=O)NC2Cc3ccccc3C2)O[C@@H]1CO | 7.3 | 1.1
5 | COc1ccc(C#Cc2ccc([C@@H]3[C@@H](CO)N4CCCCN(Cc5ccncc5)C[C@@H]34)cc2)cc1 | -5.0 | 0.6
6 | C=CCNc1ncnc2ccc(Br)cc12 | -21.1&-25.9 | -22.3&-11.7
7 | CC(C)NC(=O)N(C)C[C@H]1Oc2c(cccc2N(C)C)C(=O)N([C@@H](C)CO)C[C@H]1C | 16.6 | 2.4
8 | COc1ccc(CN(C)C[C@@H]2Oc3ccc(NC(=O)Nc4ccc5c(c4)OCO5)cc3CC(=O)N([C@H](C)CO)C[C@@H]2C)cc1 | -5.6 | -8.0
9 | C[C@H]1CN([C@@H](C)CO)C(=O)Cc2cc(NC(=O)Cc3ccccc3)ccc2O[C@H]1CN(C)C(=O)Nc1ccc(F)cc1 | 14.1 | 5.6
10 | COc1ccc(NC(=O)Nc2ccc3c(c2)C(=O)N([C@H](C)CO)C[C@@H](C)[C@@H](CN(C)S(=O)(=O)c2cn(C)cn2)O3)cc1 | 30.2 | 18.6
11 | COc1ccc(S(=O)(=O)N(C)C[C@H]2Oc3ccc(NC(=O)C4CC4)cc3C(=O)N([C@H](C)CO)C[C@H]2C)cc1 | -11.4 | -6.8
12 | C[C@@H]1CN([C@H](C)CO)S(=O)(=O)c2ccc(C#CC3CC3)cc2O[C@@H]1CN(C)Cc1ccncc1 | ? | /
13 | C[C@@H]1CN([C@@H](C)CO)C(=O)c2cc(NC(=O)c3ccccc3)ccc2O[C@@H](C)CCCCO[C@@H]1CN(C)S(=O)(=O)c1ccc(F)cc1 | -2.0 | -13.6
14 | C[C@@H]1CN([C@@H](C)CO)C(=O)Cc2cc(NC(=O)C3CCCCC3)ccc2O[C@@H]1CN(C)S(=O)(=O)c1ccccc1 | -3.7 | 6.7
15 | CCNC(=O)C[C@H]1CC[C@H]2[C@@H](COC[C@@H](O)CN2S(=O)(=O)c2ccc(Oc3ccccc3)cc2)O1 | 13.4 | 11.2
16 | O=C(C[C@@H]1C[C@H]2c3cc(NS(=O)(=O)c4ccc(F)cc4)ccc3O[C@H]2[C@@H](CO)O1)NCc1ccc(Oc2ccccc2)cc1 | ? | /
17 | C[C@H]1CN([C@@H](C)CO)C(=O)c2cc(-c3ccc(C#N)cc3)cnc2O[C@H]1CN(C)Cc1cccnc1 | 10.7 | 7.1
18 | O=C(NCc1ccccc1)C1=C[C@H](c2ccc3c(c2)OCO3)C[C@H](OCCCCO)O1 | 18.2 | 12.1
19 | Cc1ccccc1-c1cnc2c(c1)C(=O)N([C@@H](C)CO)C[C@@H](C)[C@@H](CN(C)Cc1ccccc1F)O2 | -15.1 | -22.1
20 | CO[C@@H]1CN(C)C(=O)c2cc(NS(=O)(=O)c3cn(C)cn3)ccc2OC[C@@H](C)N(Cc2cccc(Cl)c2)C[C@H]1C | -16.1 | -13.1
21 | CCCNC(=O)N1CC2(CCN(S(=O)(=O)c3cccc(OC)c3)CC2)c2c(n(C)c3cc(OC)ccc23)[C@H]1CO | -8.8 | -4.4
22 | CC(=O)N[C@@H]1CC[C@@H](CCNC(=O)C2CCCCC2)O[C@H]1CO | 4.0 | -5.9
23 | CCCN(C)C[C@@H]1Oc2cc(C#Cc3ccccc3F)ccc2S(=O)(=O)N([C@@H](C)CO)C[C@H]1C | 6.0 | 3.8
24 | O=C(CC1CC1)N1CC2(C1)[C@H](c1ccccc1)[C@H](CO)N2Cc1ccc(F)cc1 | -17.6 | -12.2
25 | C[C@@H]1CN([C@H](C)CO)C(=O)Cc2cc(NC(=O)Cc3cn(C)c4ccccc34)ccc2O[C@H]1CN(C)Cc1ccc(Cl)c(Cl)c1 | -28.1 | -24.3
26 | CC(C)C[C@@H]1NC(=O)[C@H]2C[C@@H](C(=O)NCCCCCN)[C@@H](c3cccc(OCCO)c3)N2C1=O | 30.3 | 12.7
27 | COc1ccc(S(=O)(=O)Nc2ccc3c(c2)C(=O)N([C@H](C)CO)C[C@@H](C)[C@@H](CN(C)Cc2ccc(C(F)(F)F)cc2)OCCCC[C@@H](C)O3)cc1 | ? | /
28 | COc1ccc(CN(C)C[C@H]2Oc3c(NC(=O)c4cnccn4)cccc3C(=O)N([C@@H](C)CO)C[C@@H]2C)cc1 | 0.0 | -1.5
29 | Cc1noc(C)c1NC(=O)Nc1cccc2c1O[C@@H](CN(C)Cc1ccc(C(F)(F)F)cc1)[C@H](C)CN([C@H](C)CO)C2=O | 8.9 | -2.8
30 | O=C(C1CCOCC1)N1CC(=O)N2[C@H](CO)[C@@H](c3ccc(/C=C/c4ccccc4)cc3)[C@H]2C1 | -14.2 | 0.9
31 | CC(C)NC(=O)N(C)C[C@@H]1Oc2ccc(NC(=O)Nc3ccc(F)cc3)cc2CC(=O)N([C@H](C)CO)C[C@@H]1C | -2.2 | -5.5
32 | O=C(NC1CCCCC1)N1CC(=O)N2[C@H](CO)[C@H](c3ccc(/C=C/c4ccccc4)cc3)[C@@H]2C1 | ? | /
33 | COCC(=O)Nc1ccc2c(c1)C(=O)N(C)C[C@H](OC)[C@@H](C)CN(Cc1cncnc1)[C@H](C)CO2 | -7.3 | 0.0
34 | NCC[C@@H]1CC[C@H](NS(=O)(=O)Cc2ccccc2)[C@H](CO)O1 | 6.2 | 8.2
35 | CCCC(=O)Nc1ccc2c(c1)OC[C@@H](C)N(Cc1ccccc1F)C[C@H](C)[C@H](OC)CN(C)C2=O | -12.8 | -10.4
36 | COc1ccc(-c2ccc3c(c2)[C@H]2[C@H](CCN2C(=O)c2cnccn2)[C@H](CO)N3)cc1 | -5.4 | -0.8
37 | CO[C@H]1CN(C)C(=O)c2ccc(NC(=O)C3CC3)cc2OC[C@H](C)N(C(=O)NC(C)C)C[C@H]1C | 8.2 | 7.7
38 | O=C(C[C@@H]1C=C[C@@H](NC(=O)c2ccc3c(c2)OCO3)[C@@H](CO)O1)NCc1ccc(Oc2ccccc2)cc1 | -8.6 | -1.4
39 | C/C=C/c1cnc2c(c1)C(=O)N([C@H](C)CO)C[C@@H](C)[C@@H](CN(C)C(=O)Nc1ccccc1F)O2 | 7.3 | 4.9
40 | COc1cccc(S(=O)(=O)N[C@H]2CC[C@H](CC(=O)NCc3ccc(F)cc3)O[C@@H]2CO)c1 | -5.2 | -6.4
41 | COc1cccc(-c2ccc3c(c2)O[C@H](CN(C)C(C)=O)[C@H](C)CN([C@H](C)CO)S3(=O)=O)c1 | 2.8 | -8.9
42 | C[C@@H]1CCCCO[C@@H](CN(C)C(=O)NC2CCCCC2)[C@@H](C)CN([C@H](C)CO)C(=O)c2cc(NC(=O)CCC(F)(F)F)ccc2O1 | 15.9 | 12.3
43 | C[C@H](CO)N1C[C@H](C)[C@H](CN(C)C)Oc2ccc(NC(=O)CCCN(C)C)cc2C1=O | 19.1 | 11.3
44 | C[C@@H]1CN([C@H](C)CO)C(=O)c2c(c3ccccc3n2C)-c2ccccc2CO[C@@H]1CN(C)C(=O)Nc1ccccc1C(F)(F)F | -32.0 | -23.2
45 | CC(=O)N(C)C[C@@H]1Oc2cc(-c3ccc(C#N)cc3)ccc2S(=O)(=O)N([C@@H](C)CO)C[C@H]1C | 12.6 | 11.4
46 | O=S(=O)(c1cccs1)N1CCCCN2[C@H](CO)[C@@H](c3ccc(Br)cc3)[C@@H]2C1 | -12.2 | -21.0
47 | COc1ccc(COCC23N=C4SCC(=O)N4[C@H](c4ccccc4O2)[C@H]3CO)cc1 | 0.7 | -4.9
48 | C[C@@H]1CCCCO[C@@H](CN(C)S(=O)(=O)c2ccc(Cl)cc2)[C@H](C)CN([C@H](C)CO)C(=O)c2cc(NC(=O)CCCN(C)C)ccc2O1 | -14.4 | -20.3
49 | C[C@@H]1CN([C@@H](C)CO)C(=O)c2cc(N(C)C)ccc2O[C@@H]1CN(C)S(C)(=O)=O | -7.6 | -3.7
50 | Cc1noc(C)c1NC(=O)N(C)C[C@H]1Oc2ccc(NC(=O)Nc3ccc4c(c3)OCO4)cc2CC(=O)N([C@H](C)CO)C[C@H]1C | 7.3 | 2.1
51 | Cc1ccc(S(=O)(=O)N(C)C[C@@H]2Oc3ccc(NC(=O)C4CC4)cc3CC(=O)N([C@H](C)CO)C[C@H]2C)cc1 | -8.9 | -3.5
52 | Cc1ccc(S(=O)(=O)N(C)C[C@H]2OCCCC[C@H](C)Oc3ccc(NS(=O)(=O)c4cn(C)cn4)cc3C(=O)N([C@@H](C)CO)C[C@@H]2C)cc1 | 14.0 | 12.1
53 | CO[C@@H]1CN(C)C(=O)c2ccc(NC(C)=O)cc2OC[C@@H](C)N(C(=O)c2ccccn2)C[C@H]1C | 15.8 | 6.6
54 | C[C@H](CO)N1C[C@H](C)[C@@H](CN(C)Cc2ccccc2C(=O)O)OCc2cnnn2CCCC1=O | 6.8 | 4.0
55 | C[C@H]1CN([C@@H](C)CO)C(=O)c2cc(N(C)C)ccc2O[C@H]1CN(C)S(=O)(=O)c1ccc(F)cc1 | 16.8 | 12.6
56 | O=C(C[C@@H]1C=C[C@@H](NC(=O)c2cccnc2)[C@H](CO)O1)NCCN1CCCCC1 | 13.7 | 7.4

Following part.
# | Molecule | Vaccinia stage | Vaccinia stage Venus
57 | O=C(C[C@H]1CC[C@H]2[C@@H](COC[C@@H](O)CN2C(=O)c2cccnc2)O1)NCc1ccc(Cl)cc1 | 28.4 | 16.1
58 | CCCNC(=O)N1[C@H](C#N)[C@H](c2ccccc2-c2ccc(F)cc2)[C@@H]1CO | 3.2 | 1.9
59 | O=C(C[C@@H]1CC[C@H]2[C@@H](COC[C@@H](O)CN2C(=O)c2ccc(F)cc2)O1)N1CCCCC1 | 8.2 | 9.8
60 | Cc1ccc(S(=O)(=O)Nc2ccc3c(c2)C(=O)N([C@H](C)CO)C[C@H](C)[C@H](CN(C)C(=O)Nc2ccc(F)cc2)OCCCC[C@H](C)O3)cc1 | ? | /
61 | Cc1noc(C)c1NC(=O)Nc1ccc2c(c1)C(=O)N([C@H](C)CO)C[C@@H](C)[C@@H](CN(C)C(=O)NC(C)C)O2 | 29.7 | 15.7
62 | CO[C@H]1CN(C)C(=O)c2ccc(NS(C)(=O)=O)cc2OC[C@H](C)N(C)C[C@@H]1C | 12.8 | 8.7
63 | COCC(=O)N(C)C[C@@H]1Oc2ncc(C#CCC3CCCC3)cc2C(=O)N([C@H](C)CO)C[C@@H]1C | 3.8 | -4.2
64 | CO[C@@H]1CN(C)C(=O)c2ccc(NS(=O)(=O)c3cn(C)cn3)cc2OC[C@@H](C)N(Cc2cccc(Cl)c2)C[C@H]1C | -6.5 | -4.8
65 | CCC(=O)Nc1ccc2c(c1)OC[C@H](C)N(Cc1ccccc1)C[C@@H](C)[C@@H](OC)CN(C)C2=O | -23.6 | -18.2
66 | C[C@H]1CN([C@@H](C)CO)S(=O)(=O)c2ccc(/C=C/c3ccccc3)cc2O[C@H]1CN(C)C(=O)c1ccncc1 | -34.7 | -19.3
67 | N#C[C@@H]1[C@H](c2ccc(C#Cc3ccccc3F)cc2)[C@H](CO)N1C(=O)C1CCCC1 | -28.8 | -19.8
68 | COc1ccc2c3c(n(C)c2c1)[C@@H](CO)N(CC1CC1)CC31CCN(C(=O)Nc2ccccc2)CC1 | 1.4 | 3.9
69 | O=S(=O)(c1ccc(F)cc1)N1CC[C@@H]2[C@H](CO)Nc3ccc(-c4ccccc4F)cc3[C@@H]21 | ? | /
70 | O=S(=O)(N[C@@H]1CCCN(Cc2ccc(OCCO)cc2)C1)c1cc(Cl)ccc1Cl | 5.8 | 2.0
71 | CCCN(C)C[C@H]1OCCCC[C@@H](C)Oc2ccc(NC(=O)C3CCCCC3)cc2C(=O)N([C@@H](C)CO)C[C@H]1C | -23.6 | -22.3
72 | C[C@@H]1CN([C@@H](C)CO)C(=O)c2cccc(NS(C)(=O)=O)c2O[C@@H]1CN(C)C(=O)Nc1cccc2ccccc12 | 3.4 | 2.5
73 | C[C@H]1CN([C@@H](C)CO)C(=O)c2cccc(NC(=O)CCCCCC(=O)Nc3ccccc3N)c2O[C@@H]1CN(C)Cc1ccc2c(c1)OCO2 | ? | /
74 | C[C@@H]1CCCCO[C@@H](CN(C)S(=O)(=O)c2cn(C)cn2)[C@@H](C)CN([C@@H](C)CO)C(=O)c2cc(NC(=O)c3ccccc3)ccc2O1 | 18.8 | 6.3
75 | O=C1O[C@@H](c2ccccc2)[C@@H](c2ccccc2)N2[C@@H](c3ccccc3OCCO)[C@]3(C(=O)Nc4ccccc43)[C@@H](C(=O)O)[C@H]12 | -6.6 | -5.8
76 | CO[C@H]1CN(C)C(=O)c2ccc(NC(=O)Nc3ccccc3F)cc2OC[C@@H](C)N(C)C[C@@H]1C | 1.5 | -6.3

Ordered by molar mass (highest first): five of the compounds above.
# | Molecule | Vaccinia stage | Vaccinia stage Venus
73 | C[C@H]1CN([C@@H](C)CO)C(=O)c2cccc(NC(=O)CCCCCC(=O)Nc3ccccc3N)c2O[C@@H]1CN(C)Cc1ccc2c(c1)OCO2 | ? | /
71 | CCCN(C)C[C@H]1OCCCC[C@@H](C)Oc2ccc(NC(=O)C3CCCCC3)cc2C(=O)N([C@@H](C)CO)C[C@H]1C | -23.6 | -22.3
72 | C[C@@H]1CN([C@@H](C)CO)C(=O)c2cccc(NS(C)(=O)=O)c2O[C@@H]1CN(C)C(=O)Nc1cccc2ccccc12 | 3.4 | 2.5
70 | O=S(=O)(N[C@@H]1CCCN(Cc2ccc(OCCO)cc2)C1)c1cc(Cl)ccc1Cl | 5.8 | 2.0
69 | O=S(=O)(c1ccc(F)cc1)N1CC[C@@H]2[C@H](CO)Nc3ccc(-c4ccccc4F)cc3[C@@H]21 | ? | /

Compound activity deposited in PubChem BioAssay by Broad Institute.
